Polio RdRp inh = inhibitors of poliovirus RNA polymerase binding and polymerization; P03300; poliovirus polymerase elongation, fluorescence polarization; stronger effect = lower value; % elongation, % (compound at 16.7 µg/mL); 150,000 tested, 0.66% active; AID 588519; in the data active = % elongation below about 90%; note: some results filed as inactive read as strong as hits
Target sequence (P03300 1749-2209 limits assumed): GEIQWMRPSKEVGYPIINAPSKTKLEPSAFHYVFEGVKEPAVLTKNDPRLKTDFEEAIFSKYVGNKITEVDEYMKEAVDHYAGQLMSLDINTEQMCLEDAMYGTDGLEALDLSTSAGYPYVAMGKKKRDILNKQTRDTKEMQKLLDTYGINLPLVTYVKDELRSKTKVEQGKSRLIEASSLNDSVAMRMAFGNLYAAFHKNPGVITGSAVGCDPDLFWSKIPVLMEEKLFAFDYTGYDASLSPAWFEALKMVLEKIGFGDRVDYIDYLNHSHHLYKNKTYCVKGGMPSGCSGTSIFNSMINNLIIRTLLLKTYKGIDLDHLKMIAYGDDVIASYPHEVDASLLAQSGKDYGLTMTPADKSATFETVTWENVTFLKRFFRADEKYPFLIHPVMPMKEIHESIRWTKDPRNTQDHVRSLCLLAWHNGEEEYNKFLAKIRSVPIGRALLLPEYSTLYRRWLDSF
Polio RdRp inh intensity = recorded beside Polio RdRp inh, whose call it bears; % elongation; measured here: total intensity read-out; formula for this scale not given here;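 total fluorescence in place of polarization; lower means less elongation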
Numbers without * were called inactive.

SMILES | Polio RdRp inh | Polio RdRp inh intensity
O=C(Cn1nc(-c2ccccc2)ccc1=O)NCc1ccc(F)cc1Cl | 108.0 | 102.0
COCCNC(=O)CSc1nc(-c2ccc(C)cc2)nc2c1c(=O)n(C)c(=O)n2C | 106.0 | 114.0
Cc1ccc(S(=O)(=O)Nc2cc(Cl)c3oc4c(c3c2)CCCC4)cc1 | 98.0 | 98.0
CCc1ccc(NC(=O)C(CC)n2c(=O)c(-c3ccccc3NC(C)=O)nc3ccccc32)cc1 (stereo not given) | 106.0 | 108.0
O=C(NCc1ccccc1)c1cccc(Nc2nc3ccccc3n3nnnc23)c1 | 112.0 | 114.0
Cc1cc(C)n2nc(CNS(=O)(=O)c3ccc(C)c(C)c3)nc2n1 | 104.0 | 107.0
COC(=O)c1cc2sc(C)cc2n1CC(=O)Nc1cccc(SC)c1 | 103.0 | 113.0
CCOc1ccc(-n2c(=O)c3c4c(sc3n(CC(=O)NCCCOC)c2=O)CCCCC4)cc1 | 105.0 | 104.0
Cc1nc2nncn2c(NCc2ccc(F)cc2)c1C | 110.0 | 106.0
O=C(Nc1ccc(Br)cc1F)C(NS(=O)(=O)c1cccc2nsnc12)c1ccccc1 (stereo not given) | 109.0 | 111.0
COc1ccc(N(C(=O)Cn2nnc3ccccc32)C(C(=O)NCc2ccccc2)c2ccc(F)cc2)cc1 (stereo not given) | 106.0 | 103.0
COc1ccc(CC(=O)Nc2sc3c(c2C(=O)Nc2cccc(Cl)c2)CCCCC3)cc1 | 107.0 | 109.0
O=S(=O)(NCc1nc2cccnc2n1Cc1ccccc1Cl)c1ccc(F)c(Cl)c1 | 109.0 | 117.0
CCCCc1ccc(Nc2cc(C)nc(-n3nc(C)cc3C)n2)cc1 | 120.0 | 124.0
COc1ccc(/C=C(\C#N)c2nc3ccccc3c(=O)[nH]2)cc1OC | 104.0 | 109.0
Cc1ccc(Cl)cc1N1CCN(C(=O)Cn2ncc3c([nH]c4ccccc43)c2=O)CC1 | 106.0 | 116.0
COc1ccc(Cl)cc1NS(=O)(=O)c1cc(Br)cc2c1N(C(=O)C1CC1)CC2 | 107.0 | 108.0
O=C(c1ccco1)N(Cc1cccnc1)c1nc2c(F)cc(F)cc2s1 | 114.0 | 117.0
Cc1ccc(NC(=O)c2c(C)nn(-c3ccccc3)c2-n2cccc2)c(Cl)c1 | 100.0 | 104.0
COc1ccc(CCNCc2c(C(=O)O)c(C)n(Cc3c(F)cccc3Cl)c2C)cc1OC | 107.0 | 103.0
O=C(O)c1ccc2nc(-c3cc4cc(F)ccc4oc3=O)[nH]c2c1 | 111.0 | 106.0
CCCNC(=O)c1cnc2sc(N3CCCCC3)nn2c1=O | 107.0 | 109.0
NC(=O)CSc1ncc2c(n1)-c1ccccc1N(Cc1ccccc1)S2(=O)=O | 105.0 | 108.0
CCC(C)NC(=O)c1cc2cc(S(=O)(=O)N3CCCCC3)ccc2n1C (stereo not given) | 108.0 | 112.0
COc1ccccc1N1CCN(C(=O)c2cn(CC(C)C)c(=O)c3c2c2ccccc2n3C)CC1 | 110.0 | 110.0
Cc1cc(C)c(NC(=O)CCn2c(=O)c3cccn3c3cccnc32)c(C)c1 | 112.0 | 106.0
CC(C)c1ccc(NC(=O)CSc2ncnc3c2sc2ccccc23)cc1 | 111.0 | 109.0
COc1ccccc1CNC(=O)c1ccc(CSc2nc3ccncc3n2Cc2ccccc2C)cc1 | 111.0 | 118.0
Cc1cc(O)c(C(=O)c2cnc3c(c2)COc2ccccc2-3)cc1Cl | 104.0 | 106.0
CCOCCc1nnc(NC(=O)C(=O)c2cc(C)n(-c3cccc(Cl)c3)c2C)s1 | 110.0 | 101.0

Brought forward from above: 6 compounds, followed by the next part.
SMILES | Polio RdRp inh | Polio RdRp inh intensity
COc1ccccc1N1CCN(C(=O)c2cn(CC(C)C)c(=O)c3c2c2ccccc2n3C)CC1 | 110.0 | 110.0
Cc1cc(C)c(NC(=O)CCn2c(=O)c3cccn3c3cccnc32)c(C)c1 | 112.0 | 106.0
CC(C)c1ccc(NC(=O)CSc2ncnc3c2sc2ccccc23)cc1 | 111.0 | 109.0
COc1ccccc1CNC(=O)c1ccc(CSc2nc3ccncc3n2Cc2ccccc2C)cc1 | 111.0 | 118.0
Cc1cc(O)c(C(=O)c2cnc3c(c2)COc2ccccc2-3)cc1Cl | 104.0 | 106.0
CCOCCc1nnc(NC(=O)C(=O)c2cc(C)n(-c3cccc(Cl)c3)c2C)s1 | 110.0 | 101.0
CCOC(=O)C1CCN(C(=O)c2ccc3c(c2)sc2nc(-c4ccccc4)cn23)CC1 | 103.0 | 104.0
COc1cc(OC)c(NC(=O)c2cn(C3CCCC3)c(=O)c3c2c2ccccc2n3C)cc1Cl | 114.0 | 116.0
CCCSc1nnc2c(n1)OC(c1ccc(OCC(=O)O)cc1)Nc1ccccc1-2 (stereo not given) | 101.0 | 103.0
CCc1ccc(OCC(=O)N2CCN(CCc3ccccn3)CC2)cc1 | 102.0 | 103.0
CCOC(=O)C1CCN(S(=O)(=O)c2csc(C(N)=O)c2)CC1 | 101.0 | 106.0
CCc1cccc(C)c1NC(=O)CC1Oc2ccc(C)cc2NC1=O (stereo not given) | 107.0 | 102.0
CCOc1cc(/C=C(\C#N)C(=O)Nc2ccccc2C)ccc1OCc1cc(=O)n2nc(CC)sc2n1 | 110.0 | 105.0
CCCCn1c(=O)c2oc3ccccc3c2n(Cc2ccc(OC)cc2)c1=O | 113.0 | 99.0
COc1ccc(/C=C/c2nc3ccccc3c(=O)n2-c2ccc(C)cc2)cc1O | 108.0 | 112.0
COc1ccc(C)cc1-n1c(-c2ccc(Cl)cc2)cc2c1CC(C)(C)CC2=O | 105.0 | 107.0
Cc1ccc(NC(=O)C2CCCN(S(=O)(=O)c3ccc4[nH]c(=O)ccc4c3)C2)cc1C (stereo not given) | 122.0 | 122.0
O=c1c2cccnc2n(Cc2cccc(F)c2)c(=O)n1Cc1ccc(F)cc1 | 107.0 | 104.0
CCN1CCN(CCCNC(=O)c2cnn(-c3ccc(OC)cc3)c2C2CCN(C(=O)OC(C)(C)C)CC2)CC1 | 108.0 | 107.0
O=S(=O)(c1ccc(Br)cc1)c1nnn2c1nc(NCc1cccs1)c1sccc12 | 109.0 | 116.0
Cc1cccc(CNC(=O)c2ccc3c(c2)N(C)CCS3)c1 | 104.0 | 107.0
Cc1ccccc1Nc1c(-c2c[nH]c3ccccc23)nc2ccccn12 | 107.0 | 106.0
CCOc1ccc(NC(=O)CN2CCCN(Cc3cc(C)ccc3C)S2(=O)=O)cc1 | 101.0 | 105.0
O=C(CSCc1cnn(-c2ccccc2)c1-n1cccc1)NCc1ccc(Cl)cc1 | 106.0 | 109.0
Nc1nc(SCC(=O)Nc2cccc(C(F)(F)F)c2)n[nH]1 | 102.0 | 105.0
Cc1oc2ncn(CC(C)C)c(=O)c2c1C(=O)Nc1cccc(C(F)(F)F)c1 | 110.0 | 107.0
CCn1c2ccccc2c2nnc(SCCN3CCCCC3)nc21 | 105.0 | 106.0
Cc1cccc(-c2noc(CN(C(=O)c3ccccc3Cl)C(C)C)n2)c1 | 111.0 | 117.0
Cc1ccc(NC(=O)CSc2nc3ncccc3[nH]2)cc1F | 110.0 | 98.0
COc1cccc(NC(=O)N(Cc2cn(C)c3ccccc23)C2CCCCC2)c1 | 109.0 | 112.0
CCCNC(=O)C1CCC(Cn2c(=O)c3sccc3n(Cc3cccc(OC)c3)c2=O)CC1 (stereo not given) | 111.0 | 106.0
COC(=O)c1cc2sccc2n1Cc1ccccc1 | 107.0 | 103.0
N#C/C(=C\c1ccc(-c2ccc(Cl)c(C(=O)O)c2)o1)c1nc2ccccc2[nH]1 | 82.0 | 235.0
CCc1ccccc1-n1c(SCC(=O)Nc2ccc(C)cc2)nc2n[nH]c(C)c2c1=N | 101.0 | 91.0
Cc1cccc(-n2c(=O)c3c(c4cc(C)ccc4n3C)n(CC(=O)Nc3ccc(C)cc3C)c2=O)c1 | 109.0 | 106.0
Cc1nnc(N2CCN(c3cccc(C(F)(F)F)c3)CC2)c2c1nnn2Cc1ccccc1 | 110.0 | 111.0

Complete entries as entered above. Values in the order: Polio RdRp inh, Polio RdRp inh intensity
O=C(CSCc1cnn(-c2ccccc2)c1-n1cccc1)NCc1ccc(Cl)cc1 is listed with 106.0, 109.0
COC(=O)c1cc2sccc2n1Cc1ccccc1 is listed with 107.0, 103.0

Following part
SMILES | Polio RdRp inh | Polio RdRp inh intensity
COc1ccc(NC(=O)Cn2c(=O)n(CCc3ccccc3)c(=O)c3sc4ccccc4c32)cc1 | 103.0 | 101.0
COc1ccc(CNc2nc(-c3ccco3)nn2C(=O)c2ccccc2Cl)cc1 | 112.0 | 109.0
CCCNC(=O)c1c(NC(=O)c2ccc(C)cc2)sc2c1CCCCC2 | 109.0 | 113.0
O=S(=O)(NCCc1csc(-c2cccc(F)c2)n1)c1cc(F)ccc1F | 105.0 | 111.0
Cc1ccc(C)c(-c2nnc(NC(=O)c3ccc4c(c3)OCCO4)o2)c1 | 116.0 | 124.0
COc1ccc(-c2noc(N3CCC(C(=O)Nc4ccc(OC)c(OC)c4)CC3)n2)cc1 | 111.0 | 112.0
Cc1ccc(NC(=O)NCc2cccn2Cc2ccccc2)cc1F | 109.0 | 112.0
CCCCOC(=O)CSc1nnc(-c2ccccc2)o1 | 101.0 | 108.0
CCC1CN(C(=O)N2CCC(C(=O)O)CC2)c2cc(C)ccc2O1 (stereo not given) | 105.0 | 109.0
Cc1ccc(C(NC(=O)Cc2cccs2)C(=O)Nc2ccc(C(C)C)cc2)cc1 (stereo not given) | 107.0 | 110.0
CC(C)CNc1ncnc2onc(-c3ccc(Cl)cc3)c12 | 108.0 | 106.0
COc1ccc(N2CCN(C(CNC(=O)C(=O)NCc3ccc(F)cc3)c3cccnc3)CC2)cc1 (stereo not given) | 113.0 | 109.0
Cc1cccc(NC(=O)C2CCCN(S(=O)(=O)c3ccc(Br)s3)C2)c1 (stereo not given) | 112.0 | 110.0
O=S(=O)(NCCS(=O)(=O)N1CCN(c2ccccc2F)CC1)c1ccc(Cl)cc1 | 110.0 | 111.0
Cc1ccc(CN2CCC(CNC(=O)c3cnn(-c4ccccc4)c3C3CCN(C(=O)OC(C)(C)C)CC3)CC2)cc1 | 105.0 | 110.0
COc1cccc(C(=O)NCCc2csc(-c3ccc(Cl)cc3)n2)c1 | 107.0 | 112.0
Cn1c(=O)[nH]c(=O)c2c1nc(N1CCOCC1)n2Cc1ccccc1 | 103.0 | 105.0
Cc1cccc2sc(N(Cc3cccnc3)C(=O)CCS(=O)(=O)c3ccccc3)nc12 | 107.0 | 114.0
Cc1nn2c(=O)cc(COC(=O)c3ccccc3NC(=O)c3cccs3)nc2s1 | 107.0 | 105.0
Cc1cc2c(n1-c1ccc(C(=O)NCCc3ccc(Cl)cc3)cc1)CCCC2 | 112.0 | 104.0
Cc1nn2c(C)c(C(=O)N3CCN(c4ccccc4)CC3)cnc2c1-c1ccccc1 | 108.0 | 111.0
Cc1cc(C)c(Cn2c3ccccc3c3cnn(CC(=O)NCc4ccccn4)c(=O)c32)c(C)c1 | 104.0 | 106.0
CCOC(=O)c1cccnc1SCC(=O)Nc1ccc(C)cc1C | 111.0 | 114.0
COc1cccc(-c2nc(S(=O)(=O)c3ccc(C)cc3)c(NCc3ccccc3)o2)c1 | 102.0 | 95.0
Cc1cccc(N2CCN(C(=O)c3c(C)oc4nc(C)nc(N5CCCC5)c34)CC2C)c1 (stereo not given) | 104.0 | 109.0
COc1ccc(CNC(=O)Cc2coc3ccc(C(C)C)cc23)cc1 | 113.0 | 113.0
COc1ccc(S(=O)(=O)N(CC(=O)NCc2ccccc2)c2ccc(C)cc2)cc1OC | 110.0 | 112.0
COc1ccccc1C1SCC(=O)Nc2c1c(C)nn2-c1cccc(C)c1 (stereo not given) | 107.0 | 111.0
COc1ccc(-c2noc(COc3cc(C)ccc3C)n2)cc1OC | 101.0 | 107.0
COc1ccccc1NC(=O)c1nc(SCc2ccc(F)cc2)ncc1Cl | 104.0 | 107.0
COc1cccc(NC(=O)CSC2=Nc3ccccc3C3=NC(CC(=O)NCc4ccc5c(c4)OCO5)C(=O)N23)c1 (stereo not given) | 109.0 | 106.0
Cc1nc2cc(C(=O)O)ccc2n1-c1ccc(C(C)C)cc1 | 104.0 | 106.0
COc1cc2c(cc1OC)n(CC(=O)c1cc(C)ccc1C)c(=O)n1nc(CCn3nc(C)cc3C)nc21 | 105.0 | 104.0
O=C(COc1ccccc1)N(Cc1cccnc1)c1nc2ccc(Cl)cc2s1 | 107.0 | 109.0
COc1cccc(-c2csc(-c3c(N)c(C(=O)c4ccc5c(c4)OCO5)n4ccccc34)n2)c1 | 76.0* | 77.0*
O=C(Cn1cc(S(=O)(=O)Cc2ccccc2Cl)c2ccccc21)Nc1ccc(F)cc1F | 108.0 | 108.0
CCOc1ccc(S(=O)(=O)Nc2ccc3oc(C)c(C(=O)OCCOC)c3c2)cc1 | 106.0 | 108.0
Cn1c(NCCCO)nc2c1c(=O)n(Cc1cccc(F)c1)c(=O)n2C | 107.0 | 109.0
Cc1cc2c(=O)c(C(=O)c3ccncc3)cn(CC(=O)Nc3cccc(C)c3C)c2cc1C | 110.0 | 109.0
COC(=O)c1cc(C)nc2c1c(=O)nc(SCc1cc(C)ccc1C)n2C1CC1 | 110.0 | 114.0
Cc1cc(Oc2c(C(F)(F)F)oc3c(CN4CCC(C)CC4)c(O)ccc3c2=O)cc(C)c1Cl | 105.0 | 107.0
CCOC(=O)c1sc2ccccc2c1S(=O)(=O)Nc1cc(OC)ccc1OC | 112.0 | 120.0
CCOc1ccc(NC(=O)N2CCC(N3CCCCC3)CC2)cc1 | 109.0 | 111.0

As a working copy, part of the list above.
SMILES | Polio RdRp inh | Polio RdRp inh intensity
O=C(COc1ccccc1)N(Cc1cccnc1)c1nc2ccc(Cl)cc2s1 | 107.0 | 109.0
COc1cccc(-c2csc(-c3c(N)c(C(=O)c4ccc5c(c4)OCO5)n4ccccc34)n2)c1 | 76.0* | 77.0*
O=C(Cn1cc(S(=O)(=O)Cc2ccccc2Cl)c2ccccc21)Nc1ccc(F)cc1F | 108.0 | 108.0
CCOc1ccc(S(=O)(=O)Nc2ccc3oc(C)c(C(=O)OCCOC)c3c2)cc1 | 106.0 | 108.0

Bioassay records as filed in PubChem.

Only part of the results is shown; the hit share may differ from the screen's.
